PV pol inh: inhibitors of poliovirus RNA polymerase binding and polymerization. P03300. poliovirus polymerase elongation, fluorescence polarization; active compounds read low. % elongation, % (compound at 16.7 µg/mL). hit rate 0.66% among 150,000; in the data active = % elongation below about 90%; also: some results filed as inactive read as strong as hits
Target sequence (P03300 1749-2209 limits assumed): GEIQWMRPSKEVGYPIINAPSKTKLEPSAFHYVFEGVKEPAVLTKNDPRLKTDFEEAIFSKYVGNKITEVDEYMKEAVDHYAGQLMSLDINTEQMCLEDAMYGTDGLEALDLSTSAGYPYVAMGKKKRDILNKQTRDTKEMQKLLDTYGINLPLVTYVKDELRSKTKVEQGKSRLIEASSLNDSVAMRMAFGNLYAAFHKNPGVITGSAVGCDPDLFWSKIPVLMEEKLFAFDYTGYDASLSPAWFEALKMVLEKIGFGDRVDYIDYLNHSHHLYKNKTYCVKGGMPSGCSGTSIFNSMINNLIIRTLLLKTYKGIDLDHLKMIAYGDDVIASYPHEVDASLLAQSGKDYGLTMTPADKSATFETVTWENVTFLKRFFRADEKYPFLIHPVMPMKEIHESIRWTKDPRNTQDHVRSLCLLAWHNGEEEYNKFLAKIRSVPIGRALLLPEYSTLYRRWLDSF
PV pol inh intensity: second read-out of PV pol inh, no call of its own (marks repeat the call); % elongation; measured here: total intensity read-out; formula for this scale not given here;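 total fluorescence in place of polarization; lower means less elongation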
Active calls of the source: *. Some of the compounds tested; rates above refer to the full screens.

SMILES	PV pol inh	PV pol inh intensity
Cc1ccc(-n2ncc(C(=O)Nc3ccc4c(c3)OCO4)c2C2CCN(C(=O)OC(C)(C)C)CC2)cc1	110	109
COc1cccc(NC(=O)c2oc3ccccc3c2NC(=O)c2cc3ccccc3o2)c1	105	104
O=C(NCc1cccc(F)c1)C1CCN(c2nc3ccccc3nc2C(F)(F)F)CC1	112	118
Cc1ccc(-n2nc(CO)c(C(=O)NCc3cccnc3)n2)cc1C	107	101
O=C(Cn1ncc2ccsc2c1=O)N1CCN(c2ccccc2)CC1	108	112
Clc1ccc(CCNC(c2nnc(-c3ccccc3)o2)c2ccccc2Cl)cc1 (stereo not given)	109	111
Fc1ccc(-n2ncc3c(Nc4cccc(Cl)c4)ncnc32)cc1	113	109
COc1ccc(Cn2c(C(=O)O)c(CNCc3cccc(OC)c3)c3ccc(C)cc32)cc1	111	110
CCOc1ccc(-c2ncnn2-c2sc3c(c2C#N)CCCCC3)cc1	106	112
O=C(COCc1cc(-c2ccc(F)cc2)on1)Nc1cc(F)ccc1F	102	106
Cc1ccc(-n2nc(C)c3c(C)c(CCC(=O)NCc4ccccc4Cl)c(C)nc32)cc1	106	110
CCOc1ccc(N(CC(=O)Nc2ccc3c(c2)OCO3)S(=O)(=O)c2ccccc2)cc1	103	103
Cc1cccc(N2CCN(CCCNC(=O)Cn3ncc4c([nH]c5ccccc54)c3=O)CC2C)c1 (stereo not given)	110	117
Fc1ccc(CSc2nncn3c2cc2occc23)c(Cl)c1	106	104
Cc1cc(C)c2c(n1)SCC(=O)N2CC(=O)Nc1ccc(C)c(C)c1	112	108
Cc1ccc(S(=O)(=O)Cc2ccc(C(=O)NCCc3ccc(Cl)cc3)o2)cc1	105	106
CCc1cccc(NC(=O)Cn2c(=O)n(CC3CCC(C(=O)NC)CC3)c(=O)c3sccc32)c1 (stereo not given)	107	112
O=C(Cn1c(=O)n(Cc2ccco2)c(=O)c2ccc(C(=O)NC3CCCC3)cc21)Nc1ccc(F)cc1	107	110
O=C(CSc1nc2ccccc2c2nc(-c3ccccc3)nn12)Nc1ccc(Br)cc1	110	113
Cc1nc2c(c(C)nn2-c2ccccc2)c(C)c1CCC(=O)NCCc1ccc(Cl)cc1	110	112
COc1ccc(-c2c(C)nn3c(C(F)(F)F)cc(-c4ccc(C)cc4)nc23)cc1	104	105
Cc1ccc(-n2c(=O)c3oc4ccccc4c3n(Cc3ccccc3F)c2=O)cc1C	109	95
Cc1ccc(S(=O)(=O)Cc2ccc(C(=O)N3CCN(c4cccc(Cl)c4)CC3)o2)cc1	105	107
CCOc1ccc(N(CC(=O)Nc2ccccc2CC)S(=O)(=O)c2c(C)noc2C)cc1	108	109
COCCCNC(=O)CN1C(=O)CSc2ccc(S(=O)(=O)N3CCOCC3)cc21	105	106

Compound profiles, as listed above:
Profile of CCOc1ccc(N(CC(=O)Nc2ccccc2CC)S(=O)(=O)c2c(C)noc2C)cc1 = PV pol inh = 108; PV pol inh intensity = 109
Profile of CCc1cccc(NC(=O)Cn2c(=O)n(CC3CCC(C(=O)NC)CC3)c(=O)c3sccc32)c1 (stereo not given) = PV pol inh = 107; PV pol inh intensity = 112

Additional records follow.
SMILES	PV pol inh	PV pol inh intensity
CCOc1cc(CNC(=O)Cn2c(-c3cccs3)cc3cc(F)ccc32)ccc1OC	113	114
COc1ccccc1CNC(=O)C(CC(C)C)N1Cc2ccccc2C1=O (stereo not given)	102	101
O=C(CSc1ccccc1)N1CCc2c([nH]c3ccccc23)C1c1ccc(F)cc1 (stereo not given)	101	106
COc1ccc2[nH]cc(CCN=C(NC(=O)c3ccccc3OC)Nc3nc(C)cc(C)n3)c2c1	102	105
COc1ccc(NC(=O)c2ncoc2-c2ccco2)cc1Cl	100	94
COc1ccc(-c2nc3cc(NC(=O)c4ccc(C)cc4)ccc3o2)cc1Cl	105	108
COc1ccc(CNC(=O)CCCN2C(=O)CSc3c2c(C)nn3-c2ccccc2)c(OC)c1	105	105
COc1cccc2c1Oc1ncccc1N(c1ccc(C(=O)NCc3ccccc3C)s1)C2	112	113
CCCn1c(=O)c2sccc2n2c(CCCC(=O)NCCOC)nnc12	114	119
Cc1cccc(C)c1NC(=O)CSc1nc(-c2ccccc2)nc2c1Cc1c(CO)cnc(C)c1O2	109	111
CCc1ccc(CNC(=O)c2cc3c(=O)oc4ccc(C)cc4c3s2)cc1	102	104
Cc1cccc(NC(=O)c2cc3c(=O)n(Cc4ccco4)ccc3nc2C)c1	108	113
CCOC(=O)c1cccc(NC(=O)CCn2c(-c3ccc(F)cc3)cc(C(=O)OCC)c2C)c1	109	115
C=CCc1cccc2cc(-c3nc4ccc(C)cc4[nH]3)c(=O)oc12	98	127
COc1ccc(NC(=O)N2CCC(n3c(C)nc4cccnc43)CC2)cc1OC	109	115
COc1cccc(NC(=O)C(Cc2ccccc2)NS(=O)(=O)c2ccc3c(c2)c(=O)n(C)c(=O)n3C)c1 (stereo not given)	102	103
CCOc1ccc(CC(=O)N2CCc3cc(OC)c(OC)cc3C2COc2ccc3c(C)cc(=O)oc3c2)cc1 (stereo not given)	106	108
Cc1ccc(-n2nc(C)c3nc(CCC(=O)Nc4ccc(F)cc4)c(=O)n(C)c32)cc1	110	110
Cc1cccc(NC(=O)c2c(C)oc3ncnc(N4CCCCC4)c23)c1C	101	98
CCOc1ccc(C(=O)c2cn(CC(=O)Nc3ccc(OC)cc3)c3cc4c(cc3c2=O)OCO4)cc1	106	112
COc1ccc(NC(=O)C(=O)NCCc2csc(-c3ccc(Cl)cc3)n2)cc1	107	110
CCC(Oc1ccccc1F)C(=O)Nc1c(C(=O)c2ccccc2)oc2ccccc12 (stereo not given)	107	114
CCC1CCCCN1S(=O)(=O)c1cc2c(cc1C)NC(=O)CO2 (stereo not given)	97	91
CCOC(=O)c1ccc(NC(=O)c2nsc3ccccc23)cc1	110	107
CCOc1ccc(NC(=O)C2CCN(c3nnc(C)c4c(C)n(-c5ccccc5)nc34)CC2)cc1	106	105

Structures listed so far that have a Cl atom:
SMILES	PV pol inh	PV pol inh intensity
Clc1ccc(CCNC(c2nnc(-c3ccccc3)o2)c2ccccc2Cl)cc1 (stereo not given)	109	111
Fc1ccc(-n2ncc3c(Nc4cccc(Cl)c4)ncnc32)cc1	113	109
Cc1ccc(-n2nc(C)c3c(C)c(CCC(=O)NCc4ccccc4Cl)c(C)nc32)cc1	106	110
Fc1ccc(CSc2nncn3c2cc2occc23)c(Cl)c1	106	104
Cc1ccc(S(=O)(=O)Cc2ccc(C(=O)NCCc3ccc(Cl)cc3)o2)cc1	105	106
Cc1nc2c(c(C)nn2-c2ccccc2)c(C)c1CCC(=O)NCCc1ccc(Cl)cc1	110	112
Cc1ccc(S(=O)(=O)Cc2ccc(C(=O)N3CCN(c4cccc(Cl)c4)CC3)o2)cc1	105	107
COc1ccc(NC(=O)c2ncoc2-c2ccco2)cc1Cl	100	94
COc1ccc(-c2nc3cc(NC(=O)c4ccc(C)cc4)ccc3o2)cc1Cl	105	108
COc1ccc(NC(=O)C(=O)NCCc2csc(-c3ccc(Cl)cc3)n2)cc1	107	110

Additional results.
SMILES	PV pol inh	PV pol inh intensity
COc1cc(NS(=O)(=O)c2cc3c(cc2C)n(C)c(=O)c(=O)n3C)cc(OC)c1	98	107
CCCCN(Cc1ccco1)C(=O)Cn1ncc2c([nH]c3ccccc32)c1=O	115	105
CCC(Cn1nnc2ccccc2c1=O)NC(=O)Nc1ccc(C)c(C)c1 (stereo not given)	106	109
COc1ccccc1OC(C)C(=O)Nc1cccc(-c2nc3ccccc3s2)c1 (stereo not given)	98	96
CC1=C(C(=O)NCc2ccccc2C)C2(CCCCCC2)OC1=O	104	105
COc1ccc(-c2cc(C)no2)cc1S(=O)(=O)N1CCN(c2ccccc2F)CC1	105	98
CCCCOc1ccc(C(=O)Nc2nnc3n2CCS3)cc1	101	111
CCN(CC)S(=O)(=O)c1ccc2c(c1)N(CC(=O)Nc1cccc(C(C)=O)c1)C(=O)CO2	107	111
CCCOc1ccc(-c2nc(N3CCCCC3)c3ccccc3n2)cc1	105	104
Cc1cccc(CNC(=O)CCCn2c(=O)c3cccn3c3ccc(F)cc32)c1	110	91
COc1cccc(CNC(=O)N2CCc3c(sc4c3CCCC4)C2c2ccc(F)cc2)c1 (stereo not given)	106	112
Cc1ccc(-n2ncc3c(Nc4cccc(C)c4)ncnc32)cc1	111	110
CCN(c1cc(C)cc(C)c1)S(=O)(=O)c1nnc(NC(=O)C2CCCCC2)s1	104	94
COC(=O)c1ccc(NC(=O)CCNS(=O)(=O)c2cccc3nsnc23)cc1	105	110
CCCSCCCNC(=O)c1ccc2c(c1)sc1nc(-c3ccc(OCC)cc3)cn12	104	102
CCOC(=O)c1ccccc1NC(=O)c1cn(CC(C)C)c(=O)c2cc(OC)c(OC)cc12	109	111
Cn1c(=O)oc2cc(S(=O)(=O)N3CCCC(C(=O)Nc4ccc(Br)cc4F)C3)ccc21 (stereo not given)	106	104
COc1ccc(CCC(=O)NCCc2csc(-c3cccc(F)c3)n2)cc1	108	115
Oc1cccc(Nc2cc(-c3ccccc3)ncn2)c1	103	100
COc1ccc(N2C(=O)C(CC(=O)Nc3ccccc3)N(CCC3=CCCCC3)C2=O)cc1 (stereo not given)	104	105
O=C(CSC1=Nc2ccccc2N=C(c2ccc(F)cc2)C1)Nc1ccccc1	112	110
Cc1cc(C)cc(OCC(=O)N2CCC(c3nc4ccccc4s3)CC2)c1	111	115
COc1cc(NC(=O)NC(C)c2c(-n3cccc3)sc3c2CCCC3)cc(OC)c1OC (stereo not given)	108	113
O=C(Nc1nnc(S(=O)(=O)N2CCCc3ccccc32)s1)c1cccc(F)c1	111	115
CCOC(=O)C1CCCN(C(=O)Cn2c(=O)cc(C)c3c(C)nn(C)c32)C1 (stereo not given)	102	111

Additional entries
SMILES	PV pol inh	PV pol inh intensity
COc1ccccc1CNC(=O)C(C)n1c(=O)cc(C(F)(F)F)c2c(C)nn(C)c21 (stereo not given)	108	113
COc1ccc(-c2nc(SCC(=O)Nc3ccc4c(c3)OCCO4)c(-c3ccccc3)[nH]2)cc1	112	116
CCOCCCNC(=O)C1CCN(c2nn3cc(-c4ccc(F)cc4)nc3s2)CC1	108	101
Cc1cc2nc(-c3ccc(OCc4ccccc4C)cc3)cc(C(F)(F)F)n2n1	109	112
Cc1ccc(-c2nc(S(=O)(=O)c3ccc(C)cc3)c(SCC(=O)c3ccccc3)o2)cc1	103	107
CCOC(=O)N1CCc2c(sc3c2c(=O)n(-c2ccc(CC)cc2)c(=O)n3C)C1	107	111
Cc1cccc(CN2C(=O)CN=C(c3ccccc3)c3ccccc32)c1	104	110
CCOc1ccc(C2Nc3ccccc3-c3nnc(SCc4ccccc4)nc3O2)cc1OC (stereo not given)	101	106
CCCCn1c(-c2ccc(S(=O)(=O)N3CCOCC3)cc2)csc1=Nc1ccccc1	102	103
CC(=O)c1ccc(-n2c(CCC(=O)O)ccc2-c2cccs2)cc1	107	112
CC(=O)c1cccc(NC(=O)Cn2c(-c3cncs3)nc3ccccc32)c1	111	113
COc1ccc(-n2c(-c3ccco3)nc3c(cnn3-c3ccccc3C)c2=O)cc1	102	101
Cc1cc(C)n2nc(CNS(=O)(=O)c3ccc(Cl)cc3)nc2n1	104	106
COc1ccc(CNC(=O)C2CCN(C(=O)N3CCOc4ccc(Cl)cc43)CC2)cc1	107	99
Cc1c(C(=O)NCc2cccc(F)c2)oc2c1-c1[nH]ncc1CC2	102	104
Cc1cc(C)c(NC(=O)CSc2ncc3c(n2)-c2cc(Cl)ccc2N(C)S3(=O)=O)c(C)c1	117	107
CCc1cccc(C)c1NC(=O)Cn1ccn(Cc2ccc(Cl)cc2)c(=O)c1=O	106	105
Cc1nn(C(C)C(=O)NC2CCCCC2)c(=O)c2c1sc1ccccc12 (stereo not given)	112	112
CCOC(=O)c1c(C)[nH]c(C)c1S(=O)(=O)N1CCC(C(=O)Nc2ccccn2)CC1	107	106
CCc1c(C)sc2c1CCN(C(=O)Nc1cc(Cl)c(OC)cc1OC)C2c1ccccc1 (stereo not given)	103	105
COc1cccc(C2C=C(c3ccc(C)c(C)c3)Nc3nnnn32)c1OC (stereo not given)	102	103
CCOc1ccccc1NC(=O)CN1C(=O)COc2ccc(S(=O)(=O)N3CCOCC3)cc21	116	122
COc1cc(OC)cc(-c2nc3nc(C)c(CCC(=O)Nc4cc(F)ccc4F)c(C)n3n2)c1	101	102
COc1ccc(CNC(=O)CSc2n[nH]c(-c3ccc(OC)cc3)n2)cc1	112	118
CCn1c(=O)cc(OCC(=O)N2CCN(c3ccc(F)cc3)CC2)c2ccccc21	97	97

(next part)
SMILES	PV pol inh	PV pol inh intensity
CCOC(=O)c1c(S(=O)(=O)N2CCC(C(=O)Nc3ccc(C)cn3)CC2)c(C)n(C)c1C	108	111
Fc1ccccc1-n1ncc2c1ncn1nc(COc3ccc(Cl)cc3)nc21	120	119
CCOc1ccc(C(=O)Nc2cc(-c3nc4ccccc4s3)ccc2OC)cc1	101	97
COc1ccccc1NC(=O)N1CCOc2ccccc21	105	108
CN(C(=O)CSc1nc(-c2ccccc2)no1)c1ccc(F)cc1	109	105
COc1ccc(N(CC(=O)NCCc2ccc(Cl)cc2)S(=O)(=O)c2c(C)nn(C)c2C)cc1	107	107
CNC(=O)C1CCN(c2nc3ccccc3nc2C(F)(F)F)CC1	99	102
COC(=O)c1cc2occc2n1CC(=O)Nc1cccc(SC)c1	107	112
O=C(CSc1nc(-c2ccc(F)cc2)[nH]c1-c1ccccc1)Nc1ccccc1	106	106
CCOc1ccc(C(=O)NCCc2csc(-c3cccc(F)c3)n2)cc1OCC	98	99
Cc1ccc(C(=O)COC(=O)c2cccc(NC(=O)c3ccc(Br)cc3)c2)cc1	107	112
Cc1ccc(C(=O)c2cn(Cc3ccccc3)c3ccccc3c2=O)cc1	107	107

Reprinted at random: 5 records from the list, in no set order.
SMILES	PV pol inh	PV pol inh intensity
Fc1ccccc1-n1ncc2c1ncn1nc(COc3ccc(Cl)cc3)nc21	120	119
O=C(CSc1nc(-c2ccc(F)cc2)[nH]c1-c1ccccc1)Nc1ccccc1	106	106
CCOc1ccc(C(=O)NCCc2csc(-c3cccc(F)c3)n2)cc1OCC	98	99
CN(C(=O)CSc1nc(-c2ccccc2)no1)c1ccc(F)cc1	109	105
Cc1ccc(C(=O)COC(=O)c2cccc(NC(=O)c3ccc(Br)cc3)c2)cc1	107	112

Screens (PubChem BioAssay)
